N370S GC mod = qHTS Assay for Inhibitors and Activators of N370S glucocerebrosidase as a Potential Chaperone Treatment of Gaucher Disease; Lysosomal acid glucosylceramidase (Homo sapiens), P04062; N370S GC spleen homogenate, 4MU-glucoside fluorescence; Potency, µM (highest dose often 59.4 µM), inactives show at the top dose activity change, negative = inhibition, usual class: inhibitors; hit rate 0.092% among 330,000;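 note: 0% = full enzyme activity and -100% = no enzyme basal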
FEN1 inhibitor = qHTS Assay for the Inhibitors of Human Flap endonuclease 1 (FEN1) | P39748 | Recombinant FEN1 flap cleavage, fluorescence, 15 min | Potency, µM (titrated, usually from 114 µM), for the others: at the highest dose activity change, negative = inhibition, most hits filed as inhibitors | hit rate 0.35% among 390,000 | AID 588795, 2011; note: nearly all actives have a fitted effect of over 65% in size
Target sequence (P39748 whole entry, looked up): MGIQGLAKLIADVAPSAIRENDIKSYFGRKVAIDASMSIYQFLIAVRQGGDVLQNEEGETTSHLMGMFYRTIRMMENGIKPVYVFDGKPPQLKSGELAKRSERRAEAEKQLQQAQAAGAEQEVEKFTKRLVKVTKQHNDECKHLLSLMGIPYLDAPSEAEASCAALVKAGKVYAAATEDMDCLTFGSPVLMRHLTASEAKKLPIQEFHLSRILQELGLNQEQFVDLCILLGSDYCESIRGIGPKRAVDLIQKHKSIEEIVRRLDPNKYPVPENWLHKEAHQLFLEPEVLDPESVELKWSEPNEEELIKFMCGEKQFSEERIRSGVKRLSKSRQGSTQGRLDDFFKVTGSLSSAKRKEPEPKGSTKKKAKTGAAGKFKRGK
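FEN1 at 10 nM preincubated with compounds 15 min at room temperature, then flap DNA substrate added at 50 nM final. Signal read at 0 and 15 min; concentration-response fitted with four-parameter Hill equation.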
* hit, by the source's call; ? = inconclusive; · = no result given; & = joins results of further samples. Calls come from the whole dose curve; as a rule, active = well fitted curve in the direction sought with a large enough effect; inconclusive = small, poorly fitted or top-dose-only effect, or another doubt; inactive = no such curve, though single readings can be large; an effect the other way counts as inactive or inconclusive. Unless noted, % is set by controls: 0 for no effect and ±100 for the full control effect; potency is the fitted concentration of half-maximal effect.

Start of the listing, in advance:
SMILES | N370S GC mod | FEN1 inhibitor
O=C(NC1CCCCC1)C(c1ccc(F)cc1)N(C(=O)c1csnn1)C1CCCC1 (configuration not stated) | 2.1% | 7.8%
O=C(CC1c2ccccc2Oc2ccccc21)N1CCN(c2ccccn2)CC1 | ? | ?
CC1CCc2c(sc(NC(=O)c3ccc(-c4ccccc4[N+](=O)[O-])o3)c2C#N)C1 (configuration not stated) | 0.3% | -0.3%
Cc1[nH][nH]c(=O)c1C(c1ccc(-c2cccc(Cl)c2)o1)c1c(C)[nH][nH]c1=O | -15.6% | -17.1%
Cc1cccc(NC2=C(Cl)C(=O)OC2OC(C)C)c1 (configuration not stated) | -1.9% | -1.9%
Cc1ccc(-c2cc(C(=O)Nc3ccc(S(=O)(=O)Nc4ncccn4)cc3)c3ccccc3n2)cc1 | -8.9% | 5.0%
CC1=NN(c2ccccc2)C(=O)C1C(=O)c1ccccc1 (configuration not stated) | 4.9% | -11.1%
COc1cccc(CC(Cc2nc3ccccc3[nH]2)c2nc3ccccc3[nH]2)c1 (configuration not stated) | -8.6% | 12.2%
COc1ccc(Cn2nnnc2C(c2cc(OC)ccc2OC)N2CCC(C(N)=O)CC2)cc1 (configuration not stated) | 2.9% | 4.0%
CS(=O)(=O)c1ccc(C(=O)NNC(=O)c2ccccc2-n2cccc2)cc1 | · | 20.2%
CCC(NC(=O)c1ccc(C#CC2(O)CCCCC2)cc1)C(=O)O (configuration not stated) | 21.1% | 0.9%
CCOC(=O)c1cccc(NC(=O)c2ccc(N(C)C)cc2)c1 | 7.2% | -8.7%
Cc1onc(-c2c(Cl)cccc2Cl)c1C(=O)NCCCN1CCOCC1 | -9.3% | 4.5%
CC1CCN(c2nc3c(-c4cccc(Br)c4)nnn3c3ccccc23)CC1 | · | 2.7%
Cc1ccc(CNC(=O)c2nn(C)c(C)c2[N+](=O)[O-])cc1 | -4.0% | 0.9%
COc1ccc(-c2cc(-c3nnc(-c4ccncc4)o3)c3ccccc3n2)cc1 | 2.6% | -2.4%

The whole of this part, from the start:
SMILES | N370S GC mod | FEN1 inhibitor
O=C(NC1CCCCC1)C(c1ccc(F)cc1)N(C(=O)c1csnn1)C1CCCC1 (configuration not stated) | 2.1% | 7.8%
O=C(CC1c2ccccc2Oc2ccccc21)N1CCN(c2ccccn2)CC1 | ? | ?
CC1CCc2c(sc(NC(=O)c3ccc(-c4ccccc4[N+](=O)[O-])o3)c2C#N)C1 (configuration not stated) | 0.3% | -0.3%
Cc1[nH][nH]c(=O)c1C(c1ccc(-c2cccc(Cl)c2)o1)c1c(C)[nH][nH]c1=O | -15.6% | -17.1%
Cc1cccc(NC2=C(Cl)C(=O)OC2OC(C)C)c1 (configuration not stated) | -1.9% | -1.9%
Cc1ccc(-c2cc(C(=O)Nc3ccc(S(=O)(=O)Nc4ncccn4)cc3)c3ccccc3n2)cc1 | -8.9% | 5.0%
CC1=NN(c2ccccc2)C(=O)C1C(=O)c1ccccc1 (configuration not stated) | 4.9% | -11.1%
COc1cccc(CC(Cc2nc3ccccc3[nH]2)c2nc3ccccc3[nH]2)c1 (configuration not stated) | -8.6% | 12.2%
COc1ccc(Cn2nnnc2C(c2cc(OC)ccc2OC)N2CCC(C(N)=O)CC2)cc1 (configuration not stated) | 2.9% | 4.0%
CS(=O)(=O)c1ccc(C(=O)NNC(=O)c2ccccc2-n2cccc2)cc1 | · | 20.2%
CCC(NC(=O)c1ccc(C#CC2(O)CCCCC2)cc1)C(=O)O (configuration not stated) | 21.1% | 0.9%
CCOC(=O)c1cccc(NC(=O)c2ccc(N(C)C)cc2)c1 | 7.2% | -8.7%
Cc1onc(-c2c(Cl)cccc2Cl)c1C(=O)NCCCN1CCOCC1 | -9.3% | 4.5%
CC1CCN(c2nc3c(-c4cccc(Br)c4)nnn3c3ccccc23)CC1 | · | 2.7%
Cc1ccc(CNC(=O)c2nn(C)c(C)c2[N+](=O)[O-])cc1 | -4.0% | 0.9%
COc1ccc(-c2cc(-c3nnc(-c4ccncc4)o3)c3ccccc3n2)cc1 | 2.6% | -2.4%
Fc1ccc(C(c2ccc(F)cc2)N2CCN(C/C=C\c3ccccc3)CC2)cc1 | -14.0% | ·
Cc1ccc([C@H]2C(C(=O)O)=CC[C@@H](c3ccc(Cl)cc3)N2S(=O)(=O)c2ccccc2C)cc1 | · | -18.1%
O=C(NC(CC(=O)N1CCN(c2ccccc2O)CC1)c1ccccc1)c1ccccc1Cl (configuration not stated) | · | -1.0%
Cc1cc(Cl)c2oc(C(=O)N3CCCCC3CCN3CCCC3=O)c(C)c2c1 (configuration not stated) | 0.6% | 17.4%
CC1CCc2c(sc3ncnc(NCCCOC(C)C)c23)C1 (configuration not stated) | ? | -16.9%
CCCCN1C(=O)Nc2ccccc2S1=O (configuration not stated) | 10.5% | -3.6%
O=C(CCNS(=O)(=O)c1ccc2[nH]c(=O)oc2c1)Nc1ccccc1 | -2.2% | 16.1%
CCOC(=O)C1=C(C)NC(=O)C1CC(=O)O (configuration not stated) | 3.0% | -9.1%
COc1cc2c(cc1OC)CC1(CCCCC1)N=C2 | -2.6% | 0.5%
Nc1c(N(Cc2ccco2)C(=O)c2cccc(Cl)c2)c(=O)[nH]c(=O)n1Cc1ccccc1 | · | -15.2%
O=C(Oc1ccc2c(c1)OCO2)c1cc2c(s1)CCC2 | -11.9% | ?
O=C(CCN1CCCO1)N1CCCC(N2CCN(c3ccccc3F)CC2)C1 (configuration not stated) | 1.3% | -4.4%
Cc1cc(Nc2ccc(Cl)cc2)n(-c2ccccc2)n1 | 12.6% | -18.7%
C[C@@]12CCC3[C@@](CCC4[C@@]3(C)CCC[C@@]4(C)C(=O)N3CCCCC3)(CC1=O)C2 (some centres not stated) | · | 1.1%
COc1ccc(NS(=O)(=O)c2cc(NC(=O)[C@@H](NC(=O)c3ccccc3)C(C)C)ccc2C)cc1 | -0.8% | 5.7%
O=C(CN1C(=O)c2ccccc2S1(=O)=O)NCCSCc1ccco1 | 1.5% | 12.5%
CCOC(=O)CSc1nnc(CCCCCN2C(=O)c3cccc4cccc(c34)C2=O)o1 | 3.8% | -12.0%
CCc1nnc(NC(=O)CSc2nnc(-c3ccoc3C)n2-c2cccc(C)c2)s1 | 4.4% | 4.5%
Cc1cc(C)c(NC(=O)CNC(=O)COC(=O)CNC(=O)c2ccc(Cl)cc2Cl)c(C)c1 | -0.4% | 6.3%
O=S(=O)(c1cccc(-c2nnc(-c3cccnc3)o2)c1)N1CCCCC1 | 3.9% | -4.1%
O=C(N/N=C/c1ccncc1)c1cccc(S(=O)(=O)N2CCCC2)c1 | -28.6% | 0.0%
Cc1ccc(NC(=O)CN2C(=O)C(=O)N(C3CCCC3)C2=O)c(Cl)c1 | · | 2.8%
O=C(c1ccncc1)N1CCN(C(=O)c2ccco2)CC1 | -10.6% | -5.5%
CCOc1cccc(C(=O)Nc2ccc(-c3nc4ncccc4o3)cc2C)c1 | · | -3.5%
COc1cc(C(=O)Nc2ccc([N+](=O)[O-])cn2)cc(OC)c1OC | 5.8% | 2.4%
C=CCN(Cc1nc(-c2cc(OC)c3c(c2)OCO3)oc1C)C1CCS(=O)(=O)C1 (configuration not stated) | 2.8% | -6.1%
O=C(NCCOc1nc(N2CCCCC2)nc(N2CCOCC2)n1)Nc1ccccc1 | 8.0% | -4.8%
O=C(COC(=O)c1c2c(nc3ccccc13)/C(=C/c1cccc([N+](=O)[O-])c1)CCC2)NC1CCS(=O)(=O)C1 (configuration not stated) | -17.0% | 0.6%
S=c1[nH]nc(Cc2cccs2)n1-c1ccccc1 | 7.4% | 10.7%

3 successive compounds out of the list so far, quoted:
SMILES | N370S GC mod | FEN1 inhibitor
COc1ccc(NS(=O)(=O)c2cc(NC(=O)[C@@H](NC(=O)c3ccccc3)C(C)C)ccc2C)cc1 | -0.8% | 5.7%
O=C(CN1C(=O)c2ccccc2S1(=O)=O)NCCSCc1ccco1 | 1.5% | 12.5%
CCOC(=O)CSc1nnc(CCCCCN2C(=O)c3cccc4cccc(c34)C2=O)o1 | 3.8% | -12.0%

(cont.)
SMILES | N370S GC mod | FEN1 inhibitor
Cc1ccc(CSc2nc3c(c(=O)[nH]c(=O)n3C)n2CCC(C)C)cc1 | 14.6% | -9.5%
CC(C)CC1NC(=O)N(CC(=O)NC2CCCc3ccccc32)C1=O (configuration not stated) | 3.8% | 6.2%
Cc1ccc(CS(=O)Cc2ccc(C(=O)N3CCOCC3)o2)cc1 (configuration not stated) | -6.0% | 1.2%
CCOc1ccc(CNCc2cccnc2)cc1 | -2.4% | -3.0%
CCn1cc(/C=N\NC(=O)Cc2ccc([N+](=O)[O-])cc2)c(C)n1 | 7.9% | 4.2%
COc1ccc(NC(=O)CSc2nnc(-c3ccco3)c(-c3ccco3)n2)cc1OC | -0.5% | -25.3%
ONC(=Nc1ccc(Cl)cc1)c1ccccc1 | -8.1% | -16.5%
CCCCC1CCC(C(=O)N(CC(C)C)c2c(N)n(Cc3ccccc3)c(=O)[nH]c2=O)CC1 (configuration not stated) | -24.8% | -4.8%
COc1cccc(OCC(O)CN2CCN(c3ccc(Cl)cc3)CC2)c1 (configuration not stated) | -20.1% | ?
Cc1cc(C)cc(-n2c(C)cc(/C=N/NC(=O)CN(c3c(C)cccc3C)S(C)(=O)=O)c2C)c1 | -11.2% | -15.9%
Cc1ccccc1SCCNC(=O)c1ccccc1Br | 11.4% | 3.1%
COc1ccc(N2C(=O)C(CC(N)=O)N(NC(=O)CCc3ccccc3)C2=O)cc1 (configuration not stated) | 0.6% | 0.0%
COCCNC(=O)c1cnn2c(C(F)F)cc(-c3ccc(C)cc3)nc12 | -0.1% | -5.6%
O=C(OCC(=O)N1CCN(C(=O)c2ccco2)CC1)c1cc(=O)c2ccccc2o1 | -5.7% | 4.8%
COc1cc(/C=C/c2[nH]c(=O)[nH]c(=O)c2[N+](=O)[O-])ccc1OCCC(C)C | 1.4% | -8.6%
CC(C)(C)NCC1(CO)SC(N)=NC1=O (configuration not stated) | -2.8% | -2.8%
CCc1c(C(=O)Nc2cc(C)cc(C)c2)[nH]c(C)c1C(C)=O | 5.2% | 1.6%
CN(C1CCCCC1)S(=O)(=O)c1ccccc1 | 5.8% | -12.2%
COc1ccc(-c2[nH]c(-c3ccc(F)cc3)nc2SCC(=O)NCc2ccco2)cc1OC | -1.6% | 3.7%
CCOC(=O)CSc1nc(=O)n2cccc(C)c2n1 | -17.4% | 1.7%
N#Cc1c(N2CCN(c3ccc(F)cc3)CC2)nc(N)c2c(N)nc3c(c12)CC(=O)N3C1CC1 | 9.7% | -10.5%
CCc1cccc(NS(=O)(=O)c2c(C)nc3scc(C)n3c2=O)c1 | 13.8% | 3.4%
CN(C)S(=O)(=O)c1cccc(-n2sc3ccccc3c2=O)c1 | -13.1% | ?
O=C(c1ccc(CS(=O)(=O)c2ccccc2)o1)N1CCN(c2ccccc2)CC1 | 3.1% | -7.3%
Cc1ccc(C(=O)NC(=S)Nc2ccc(S(=O)(=O)N(C)c3ccccc3)cc2)cc1 | 6.1% | -5.3%
O=c1cc(C(F)(F)F)nc(SCc2cccc3ccccc23)[nH]1 | -7.7% | -7.0%
COc1ccc(N2CCN(S(=O)(=O)c3ccc(-c4cnc(C5CC5)o4)cc3)CC2)cc1 | 1.7% | -0.7%&-14.1%

Source: PubChem BioAssay

Some of the compounds tested, and most or all hits are left out here.
